# HPGD inh: HPGD (human) dehydrogenase inhibition | 4.3% of 150,000 active | Potency, µM, inactives show at the highest dose activity change, negative = inhibition, actives largely listed as inhibitors | AID 894 | purified HPGD, NADH fluorescence kinetic, PGE2 substrate | P15428; active = well fitted inhibition curve with a large enough effect (not every such curve was filed as active); inconclusive = small, poorly fitted or top-dose-only effect, or another doubt; inactive = no such curve, though single readings can be large or run the other way;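 also: top concentration of the series not given in the record; plate controls included wells without enzyme; inactives centre near -10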
# Target sequence (P15428 whole entry, looked up): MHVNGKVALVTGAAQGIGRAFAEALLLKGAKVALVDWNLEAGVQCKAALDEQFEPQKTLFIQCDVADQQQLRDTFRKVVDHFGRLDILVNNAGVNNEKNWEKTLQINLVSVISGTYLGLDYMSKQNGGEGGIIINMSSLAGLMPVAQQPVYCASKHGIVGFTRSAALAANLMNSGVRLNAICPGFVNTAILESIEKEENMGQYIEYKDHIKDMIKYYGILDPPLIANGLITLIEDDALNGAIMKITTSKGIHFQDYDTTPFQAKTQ
#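 NADH formation kinetics: reaction with 30 uM PGE2 and 1 mM NAD+ (final), 20 nM enzyme, Tris-HCl pH 8 with Tween 20, after 15 min compound preincubation at room temperature. Fluorescence change, last versus first of five reads.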
# An asterisk follows results filed as active; ? = inconclusive; & = joins results of further samples. % is scaled to controls: 0 for no effect and ±100 for the full control effect; potency is read from the fitted curve at half-maximal effect. These rows are one share of the data. The share of hits here may be higher or lower than overall.
SMILES,HPGD inh
C=CCOC(=O)C1=C(C)OC(N)=C(C#N)C1c1ccoc1 (stereo unspecified),-15%
Cc1cccc(C)c1NC(=O)COC(=O)c1ccc(N2CCCC2)c([N+](=O)[O-])c1,-24%
CCOC(=O)C1C(c2ccccc2Cl)NC(=O)N(C)C1(O)C(F)(F)F (stereo unspecified),-11%
CCOC(=O)c1ccc(N=c2sc(C(=O)OC)cc(=O)n2-c2ccc(C(=O)OCC)cc2)cc1,-9%
CCOC(=O)N1CCN(C(=O)c2cc(OC)cc(OC)c2)CC1,-6%
CC(C)CC1(C(=O)NCCN2CCOCC2)C=CCN1C(=O)c1ccccc1 (stereo unspecified),0%&-2%
CN(C)CCCNCCCNC(=O)c1ccccn1,-2%
O=C1c2cccc3cccc(c23)C(=O)N1c1nccs1,-19%
N/C(=N\OCC(=O)Nc1ccccc1)c1nonc1N,-2%
COc1ccc(N2CCN(C(=O)c3ccc(C)cc3)CC2)c([N+](=O)[O-])c1,-26%
COc1ccc(CCNc2oc(Cc3ccccc3)nc2C#N)cc1OC,-12%
CCS(=O)(=O)c1ccc2oc(SCC(=O)NC(C)C3CC4CCC3C4)nc2c1 (stereo unspecified),-11%
CCCSc1nnc2[nH]c(=O)cc(N)n12,-8%
CCOc1cc(/C=C2/NC(=O)N(Cc3ccccc3F)C2=O)ccc1O,-11%
Cc1ccc(C(=O)N/C(=C/c2ccco2)C(=O)NCCCn2ccnc2)cc1,-23%
c1cn2cc(CN3CCOCC3)nc2s1,-4%
Cc1ccc(N/C=C/C(=O)c2ccc(C)cc2)cc1,-26%
C=CCN1C(=O)CSc2ccc(C(=O)NCCC3=CCCCC3)cc21,-14%
O=C(COC(=O)CCc1ccccc1)NC(c1ccccc1)c1ccccc1,-9%
CC(=O)c1nn(-c2cccc(Br)c2)cc1C(=O)c1ccc(Br)cc1,-6%

# Reprinted from the part before: 4 compounds; new compounds follow.
SMILES,HPGD inh
Cc1ccc(N/C=C/C(=O)c2ccc(C)cc2)cc1,-26%
C=CCN1C(=O)CSc2ccc(C(=O)NCCC3=CCCCC3)cc21,-14%
O=C(COC(=O)CCc1ccccc1)NC(c1ccccc1)c1ccccc1,-9%
CC(=O)c1nn(-c2cccc(Br)c2)cc1C(=O)c1ccc(Br)cc1,-6%
CCOC(=O)/C(=C\c1ccc([N+](=O)[O-])cc1)C(=O)c1cc(C(C)=O)c(Nc2ccccc2)s1,-17%
O=c1c2cn[nH]c2nc(SCc2ccccc2F)n1-c1ccc(Br)cc1,0%
C/C(=C\C(=O)c1ccc(C)o1)Nc1ccc2c(c1)OCO2,-11%
CC1CC[C@@]23CCC4(C)[C@@]5(C)CCC6C(C)(C)C(=O)CC[C@@]6(C)C5C=C[C@@]4(OC2=O)C3C1C (stereo partly specified),-5%
CC1CCCC(C)N1/N=C/c1cc(Br)c(O)c(Br)c1 (stereo unspecified),-13%
O=C(CSc1nnc(-c2ccccn2)n1Cc1ccco1)c1ccc(-c2ccccc2)cc1,-13%
C/C(=N\NC(=O)C1(C)CC1(Br)Br)c1ccc(NC(=O)c2ccc(C)o2)cc1 (stereo unspecified),18µM*
O=C(CCCCCn1c(=O)[nH]c2ccccc2c1=O)NCCCN1CCN(c2ccccc2F)CC1,-22%
CCOc1ccc(N2C(=O)c3cccnc3C2Nc2ccc(OC)cc2)cc1 (stereo unspecified),-7%
O=C(OCc1ccc([N+](=O)[O-])cc1)C1CC(=O)N(c2ccccc2)C1 (stereo unspecified),-6%
O=C(CCCOc1ccccc1)N1CCN(c2ccccn2)CC1,-7%
N#CCSc1nc2ccccc2c(=O)n1-c1ccccc1,-3%
CCN(CC)CCn1c(=N)n(CCO)c2ccccc21,-1%
Cc1cc(N2CCCC2=O)cc(C)c1CN1C(=O)c2ccccc2C1=O,-26%
O=C(NCc1ccco1)c1cc(S(=O)(=O)N2CCOCC2)ccc1Cl,-12%
Cc1cc(C)c(S(=O)(=O)ON2C(=O)c3ccccc3C2=O)cc1C,?
NS(=O)(=O)c1ccc(CNC(=O)CC23CC4CC(CC(C4)C2)C3)cc1,3%
Nc1ccc2nc(SCc3ccc([N+](=O)[O-])cc3)sc2c1,-7%
COc1c(F)c(F)c(C(=O)Nc2cccc(Cl)c2N2CCOCC2)c(F)c1F,-1%
CN1CCN(C(=O)c2cnn(-c3ccccc3)c2NC(=O)c2cccs2)CC1,-4%
Cc1nnc2ccc(N3CCOCC3)nn12,-19%
Fc1ccc(Cn2cnc3ccccc32)cc1,-2%
Cc1nc(CC(=O)Nc2nc(-c3ccccc3)cs2)cs1,-12%
O=C(CCSCCc1ccccn1)Nc1nccs1,1%
CS(=O)(=O)Nc1ccc(C(=O)NCc2ccco2)cc1,-19%
C=CCSc1nc2sc(-c3ccccc3)cc2c(=O)n1N,-22%
COc1ccccc1C(=O)NCCCn1cc(Br)c(C)n1,2%
O=C(O)c1ccc(NC(=O)c2cccs2)cc1,-13%
COc1cccc(-n2c(SCC(=O)NCCc3ccccc3)nnc2-c2ccoc2C)c1,-5%
FC(F)(F)c1cnc(/C=C/Nc2ccccc2Cl)c(Cl)c1,-18%

# Reformatted as labelled records: part of the list above
Cc1nc(CC(=O)Nc2nc(-c3ccccc3)cs2)cs1
  HPGD inh: -12%

O=C(O)c1ccc(NC(=O)c2cccs2)cc1
  HPGD inh: -13%

# Remaining list, next part.
SMILES,HPGD inh
Cc1ccc(-c2nc(SCC(=O)NCCN3C(=O)CSC3=O)[nH]c2-c2ccc(C)cc2)cc1,-19%
COc1ccc(C(=O)NCCC2=CCCCC2)cc1,-24%
Cc1cccc(N2CCN(C(=O)c3ccc(Cl)c(S(=O)(=O)NCc4ccco4)c3)CC2)c1C,-4%
CN(C)C=NC(=O)c1ccc([N+](=O)[O-])c(CS(=O)(=O)c2ccc(Cl)cc2)c1,-21%
CC(=O)OCC(=O)Nc1ccc(Cl)cc1Cl,20µM*
Cc1cc(N2CCN(C3CCCC3)CC2)n2c(nc3ccccc32)c1C#N,?
O=C(O)c1ccc(NC(=O)c2cccc(N3C(=O)C4C5CCC(C5)C4C3=O)c2)cc1 (stereo unspecified),-9%
O=C(COC(=O)CN1C(=O)C2CCCCC2C1=O)Nc1cc(S(=O)(=O)N2CCOCC2)ccc1Cl (stereo unspecified),-9%
CCN(CC)S(=O)(=O)c1ccc(N(C)Cc2ccc(C(F)(F)F)cc2)nc1,-5%
CC(=O)Nc1cccc(-c2csc(NCc3ccco3)n2)c1,-24%
COc1ccc(NC(=O)N2CC3(CCN(C(=O)c4ccco4)CC3)C2)cc1,-4%
Cc1sc(NC(=O)C2CCCCC2C(=O)O)c(C(N)=O)c1C (stereo unspecified),-5%
COC(=O)c1c(NC(=O)Cc2cccs2)sc(C(=O)N2CCCCC2)c1C,16µM*
Cc1nnc2n1NC(c1ccc(Cl)cc1)C(C(=O)N(C)C1CCCCC1)S2 (stereo unspecified),-7%
CCOCCCn1c(=NC(C)=O)c(C(=O)OCC)cc2c(=O)n3ccccc3nc21,?
Cc1ccc(NC(=O)c2ccco2)c(NC(=O)Cc2cccs2)c1,-11%
Brc1ccc(-c2csc(-c3c[nH]c4ccccc34)n2)cc1,-20%
O=C(NCC1CCCO1)c1ccccn1 (stereo unspecified),-15%
Cc1ccccc1Nc1nnc(SCC(=O)NCc2cccs2)s1,-15%
COc1cc(/C=N/NC(=O)c2cc(C34CC5CC(CC(C5)C3)C4)[nH]n2)ccc1O,-18%

# In the list so far, these have a Cl atom:
SMILES,HPGD inh
CCOC(=O)C1C(c2ccccc2Cl)NC(=O)N(C)C1(O)C(F)(F)F (stereo unspecified),-11%
O=C(NCc1ccco1)c1cc(S(=O)(=O)N2CCOCC2)ccc1Cl,-12%
COc1c(F)c(F)c(C(=O)Nc2cccc(Cl)c2N2CCOCC2)c(F)c1F,-1%
FC(F)(F)c1cnc(/C=C/Nc2ccccc2Cl)c(Cl)c1,-18%
Cc1cccc(N2CCN(C(=O)c3ccc(Cl)c(S(=O)(=O)NCc4ccco4)c3)CC2)c1C,-4%
CN(C)C=NC(=O)c1ccc([N+](=O)[O-])c(CS(=O)(=O)c2ccc(Cl)cc2)c1,-21%
CC(=O)OCC(=O)Nc1ccc(Cl)cc1Cl,20µM*
O=C(COC(=O)CN1C(=O)C2CCCCC2C1=O)Nc1cc(S(=O)(=O)N2CCOCC2)ccc1Cl (stereo unspecified),-9%
Cc1nnc2n1NC(c1ccc(Cl)cc1)C(C(=O)N(C)C1CCCCC1)S2 (stereo unspecified),-7%

# Next section.
SMILES,HPGD inh
O=C(C1CCCO1)N1CCN(C(=S)Nc2cccc(Cl)c2)CC1 (stereo unspecified),-7%
Cc1cc(=O)n2c(C)n[nH]c2n1,-15%
CC(=O)NC(Cc1ccccc1)C(=O)OCC(=O)c1ccc(Cl)cc1 (stereo unspecified),1%
COc1cc(/C=N/NC(=S)NCc2ccccc2)ccc1OCC#N,-6%
O=C1C(Cl)=C(Nc2ccccc2O)C(=O)N1CCc1ccccc1,11µM*
CN(C)CCOC(=O)C12CC3CC(CC(C3)C1)C2,-7%
CCCC(O)C(CC)CO (stereo unspecified),-3%
O=C(CSc1nnc(NC2CCCCC2)s1)NC1CCS(=O)(=O)C1 (stereo unspecified),-11%
CC(=O)N1Cc2ccccc2C(C)CC12CCCC2 (stereo unspecified),-4%
CC1Cc2nc(SCC(=O)Nc3nccs3)n(Cc3ccccc3)c(=O)c2S1 (stereo unspecified),-14%
O=C1/C(=C\c2cccs2)N=C(c2cccs2)N1Nc1ccccc1,-28%
CC1=C(CC(=O)c2ccc(Cl)cc2)C(=O)c2ccccc2C1=O,-26%
O=c1cc(N2CCNCC2)oc2c(-c3ccccc3)cccc12,-13%
Cc1cc(C2C(=O)CC(=O)CC2c2ccccc2)on1 (stereo unspecified),-20%
COc1ccc(NC(=O)CC2C(=O)N(c3ccccc3)C(=O)N2CCc2cccs2)cc1 (stereo unspecified),2%
O=C(Nc1cc(SCCO)cc([N+](=O)[O-])c1)c1ccc(Br)o1,-5%
CCOc1ccccc1N(CC(=O)N1CCOCC1)S(=O)(=O)c1ccccc1,-2%
CCOc1ccc2c(=O)c(-c3ccc4c(c3)OCCCO4)c(C)oc2c1,-11%
CCOc1ccc(OCCCCOc2ccccc2C(C)=O)cc1,-20%
O=C(Nc1nc(=O)c2ccccc2s1)c1ccc(Cl)cc1,-4%
COc1cc2c(cc1OC)C1(CCCC1)CNC2C (stereo unspecified),-5%
CC(C)C[C@@H](CC(=O)N[C@H](CC(=O)N[C@@H]1CCCC[C@H]1C(=O)N[C@H](CC(=O)N[C@@H](CCC(=O)O)CC(=O)O)Cc1c[nH]c2ccccc12)C(C)C)NC(=O)[C@@H]1CCCC[C@H]1N,-5%
CCCn1c(=O)n(C)c(=O)c2c(SCC(=O)NCc3ccco3)nc(C3CC3)nc21,2%
CCCn1c(-c2cccc([N+](=O)[O-])c2)nc2c1c(=O)[nH]c(=O)n2Cc1ccccc1,-16%
Cc1cccc(C)c1NC(=O)COC(=O)c1ccccc1Nc1ccccc1,-8%
Cc1ccccc1N(CC(=O)N/N=C/c1ccc(Cl)cc1)C(=O)c1ccccc1,-1%
CCCCCOC(=O)Cn1c(SCC(=O)Nc2ccccc2)nc2c1c(=O)[nH]c(=O)n2C,-25%
O=C(OCCNC(=O)c1ccc2ccccc2n1)c1cccnc1,-7%
COc1cc2cc(CN(CCc3cccc(C)c3)C(=S)NCCCN(C)C)c(=O)[nH]c2cc1OC,?
CCOCCCNCC(=O)Nc1ccccc1N1CCOCC1,3%
CC(C)(C)c1ccccc1NC(=O)c1ccco1,-4%
CN(C(=O)Cc1ccccc1)n1cnnc1,-6%
O=C(COC(=O)C1CC(=O)N(c2ccc3c(c2)OCCO3)C1)Nc1ccc2c(c1)CCC2 (stereo unspecified),-13%
O=C(c1ccc(S(=O)(=O)N2CCOCC2)cc1)N1CCN(C2=NS(=O)(=O)c3ccccc32)CC1,-10%
COC(=O)CSC1=C(C#N)C(c2ccc(C(C)C)cc2)CC(=O)N1 (stereo unspecified),-5%
CCCN(CCC)CCc1cccc2c1CC(=O)N2,-10%&-8%
CC(C)CCn1cnc2c([nH]c3cccc(Cl)c32)c1=O,-28%
COc1ccc(C)cc1NS(=O)(=O)c1cccc2nonc12,-14%
Cc1cc(C)n2nc(SCC(=O)NCc3ccco3)nc2n1,-22%
Cc1cc(C=O)c(C)n1-c1ccc(NC2CCCC2)c([N+](=O)[O-])c1,?
COc1ccc2oc(C(=O)CCC(=O)O)c(N)c2c1,?
CCCN1C2CCCC1CC(NC(=O)c1ccccc1)C2 (stereo unspecified),?
Nc1n[nH]c(N)c1N=Nc1ccc(Cl)cc1,-7%
O=C(O)CSc1nccn1-c1cccc(Cl)c1,-11%
Cn1nc(CC(=O)Nc2ncc(Br)s2)c2ccccc2c1=O,-1%
CSc1ccccc1C(=O)Nc1ccc2c(c1)OCCO2,-2%
O=C(CN1C(=O)C(=O)c2ccccc21)NC1CCCCC1,-6%
Cc1ccccc1NC(=O)CNc1ccccc1N1CCCCC1,-2%
COc1cccc(NC(=S)N(CCCN2CCOCC2)Cc2cn(C)c3ccccc23)c1,-16%
COc1ccc(Cn2cccc(NC(=O)Nc3ccc(C#N)cc3)c2=O)cc1,-17%
# Next section:
SMILES,HPGD inh
Cc1ccc(S(=O)(=O)NCC(=O)N2CCN(c3ccccc3F)CC2)cc1,-8%
O=C(NCc1ccc(F)cc1)C(c1cccs1)N(C(=O)c1csnn1)C1CC1 (stereo unspecified),0%
CCOC(=O)CNc1nc(C(C)(C)C)nc2c1nnn2Cc1ccccc1Cl,-21%
CC(C)Oc1ccc(NC(=O)c2ccncc2)cc1,-17%
CCc1cccc2c(C(=O)COC(=O)c3ccc(O)cc3)c[nH]c12,-6%
CCCCNC(=O)c1ccc(NS(=O)(=O)c2ccccc2)cc1,5%
CN(C)c1ccc(-c2nc3ccccc3n2C)cc1,?
Cc1ccc(NC(=S)NNC(=O)C2CC2c2ccc(C)cc2)cc1 (stereo unspecified),-18%
Cc1ccc(S(=O)(=O)/N=c2\sccn2C)cc1,-7%
Nc1nnc(CCS(=O)(=O)c2ccc(Cl)cc2)s1,-7%
Cc1ccc(-n2cccc2/C=N/n2cnnc2)cc1Cl,-19%

# High-throughput results (PubChem)
